HIV Env fusion: inhibitors of HIV-1 Env-driven cell-cell fusion, primary screen, HeLa-JRFL effector, CEM21 target cells, luciferase. inhibition, % at 12.3 µM. 1.1% of 360,000 active. AID 651610, 2012;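 active = mean replicate inhibition score of at least 50 and every replicate individually at or above 50; inconclusive = only one of the two criteria met; inactive = mean below 50 and not all replicates reaching 50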;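 note: 0% = plate neutral controls and 100% = maraviroc near 300 nM; one replicate is shown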
eIF4H FP inh: human eIF4H binding inhibitors, primary screen, translation initiation inhibitor project, biochemical, uHTS, fluorescence polarization; Eukaryotic translation initiation factor 4H (Homo sapiens), Q15056; eIF4H fluorescence polarization binding assay; inhibition, % at 35 µM; 0.94% of 290,000 active; AID 2012, 2009;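 active = 50% or more with normal probe brightness, or confirmed in later tests; inconclusive = above 50% with abnormal brightness, or retests that disagree; inactive = below 50% or failed in later tests; about a fifth of its hits are not listed in these tables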;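 note: calls also rest on retests at 20 µM and on dose response follow-up; 0% = protein and probe with vehicle and 100% = probe without protein; strong numbers were not always called active; many hits fall short of the cut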
CSC inhib: cancer stem cell viability inhibitors, primary screen, luminescence | cancer stem cell-like cells viability | inhibition, % at 7.5 µM | 1.1% of 300,000 active | AID 2717, 2010;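 active = mean at 75% or more and at least half the replicates too; inconclusive = mean and replicates disagree; tested in HMLE shEcad cells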;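 note: 0% = median of negative and 100% = median of positive control wells; the first replicate is given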
MT1-MMP act inh: blockers of MT1-MMP proenzyme processing, primary screen, HT1080 RFP-PRO-GFP cells, GFP/RFP fluorescence | Matrix metalloproteinase-14 (Homo sapiens), P50281 | GFP/RFP ratio fluorescence, overnight; percent of plate control window, DMSO zero | GFP/RFP ratio change, % at 20 µM | 0.061% of 360,000 active | AID 651647, 2012;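 active = GFP/RFP ratio change of at least 30% with cell ATP level not reduced by more than half and red fluorescence within 50% of control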; note: strong numbers were not always called active
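Assay system: HT1080 RFP-PRO-GFP cells | Dosing: 20 µM single dose, 1% DMSO | Incubation: Cells overnight before dosing, compound overnight, 37 °C, 5% CO2 | Evaluation: GFP/RFP fluorescence ratio | Control set: DMSO-only wells and HT1080 RFP-L50D-GFP cell wells as references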
Yeast UUG start: modulators of yeast start codon fidelity, primary screen, whole organism, S. cerevisiae, single point, plate reader; S. cerevisiae UUG-firefly luciferase reporter, luminescence/redox ratio; activity score, % at 18.7 µM; 0.13% of 350,000 active; AID 602363, 2012;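 active = replicate mean at a twofold rise or more, about +100% in these data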;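 note: firefly luciferase made from a UUG start codon reports start codon fidelity; reporter light over untreated wells divided by growth signal over untreated wells; some hits fall short of that in this replicate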
Rce1 inh: yeast Rce1p protease inhibitors, primary screen, biochemical, fluorescence, cell-free homogeneous; 0.27% of 290,000 active; yeast membranes, quenched prenylated peptide cleavage fluorescence; CAAX prenyl protease 2 (Saccharomyces cerevisiae (strain ATCC 204508 / S288c)), Q03530; calls only;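 active = fall in fluorescence gain of 50% or more versus controls, with final raw signal at or below 3038400; inconclusive = same 50% fall but final raw signal above 3038400; inactive = fall in fluorescence gain under 50%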;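 note: plate controls were neutral control wells for no effect and wells lacking membranes for full effect; tested at 10 µM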
Target sequence (Q03530 whole entry, looked up): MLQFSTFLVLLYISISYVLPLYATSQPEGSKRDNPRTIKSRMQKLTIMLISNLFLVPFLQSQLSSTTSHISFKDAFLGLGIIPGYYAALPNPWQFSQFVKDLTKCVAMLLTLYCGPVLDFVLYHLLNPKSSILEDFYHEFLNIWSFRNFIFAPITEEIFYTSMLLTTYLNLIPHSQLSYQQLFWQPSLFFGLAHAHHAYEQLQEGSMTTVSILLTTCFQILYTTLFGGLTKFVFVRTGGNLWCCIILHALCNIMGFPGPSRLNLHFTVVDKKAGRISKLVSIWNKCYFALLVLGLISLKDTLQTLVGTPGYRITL
PABP FP inh: PABP poly(A) RNA binding inhibitors, primary screen, biochemical, fluorescence polarization, uHTS. Polyadenylate-binding protein 1 (Homo sapiens), P11940. inhibition, % at 35 µM. 1% of 290,000 active;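 active = 50% or more with normal probe brightness, or confirmed in later tests; inconclusive = above 50% with abnormal brightness, or retests that disagree; inactive = below 50% or failed in later tests; about a fifth of its hits are not listed in these tables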;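 note: calls also rest on retests at 20 µM and on dose response follow-up; controls were probe without protein and protein plus probe with vehicle; some compounds called inactive have numbers as strong as hits; many hits fall short of the cut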
Target sequence (P11940 whole entry, looked up): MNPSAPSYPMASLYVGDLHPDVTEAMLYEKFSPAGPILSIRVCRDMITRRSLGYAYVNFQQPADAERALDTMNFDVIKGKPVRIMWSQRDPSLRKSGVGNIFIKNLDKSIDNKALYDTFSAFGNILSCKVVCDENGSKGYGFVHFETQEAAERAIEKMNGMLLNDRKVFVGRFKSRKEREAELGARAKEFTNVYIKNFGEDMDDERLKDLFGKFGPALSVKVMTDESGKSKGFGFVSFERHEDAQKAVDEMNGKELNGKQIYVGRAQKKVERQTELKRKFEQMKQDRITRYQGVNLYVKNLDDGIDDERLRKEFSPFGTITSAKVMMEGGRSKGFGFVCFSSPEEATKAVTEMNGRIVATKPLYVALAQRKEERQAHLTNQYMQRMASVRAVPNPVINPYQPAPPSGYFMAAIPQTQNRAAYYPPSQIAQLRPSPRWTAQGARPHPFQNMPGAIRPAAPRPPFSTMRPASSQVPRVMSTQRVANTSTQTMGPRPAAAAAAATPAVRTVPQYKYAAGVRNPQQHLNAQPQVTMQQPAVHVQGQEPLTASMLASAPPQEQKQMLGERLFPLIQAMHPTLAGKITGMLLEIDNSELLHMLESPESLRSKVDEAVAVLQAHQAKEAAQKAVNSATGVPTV
MT1-MMP act inh RFP: second read-out of MT1-MMP act inh, no call of its own (marks repeat the call); RFP signal change, %; measured here: RFP expression control read;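 0 = vehicle wells; hits needed this value within 50% of zero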
An asterisk follows results filed as active; i = inactive; ? = inconclusive; . = not tested or not shown.

SMILES	HIV Env fusion	eIF4H FP inh	CSC inhib	MT1-MMP act inh	MT1-MMP act inh RFP	Yeast UUG start	Rce1 inh	PABP FP inh
CCOC(=O)C(CC)n1cnc2c(nnn2-c2ccccc2)c1=O (configuration not stated)	.	-2	-8	0	0	-17	i	7
CSCCC(NS(=O)(=O)c1ccc(C)cc1C)C(=O)Nc1cccnc1 (configuration not stated)	-48	.	-2	0	1	-21	.	.
COc1cccc(C2c3c(-c4ccccc4O)n[nH]c3C(=O)N2Cc2ccco2)c1 (configuration not stated)	0	-6	0	1	4	1	i	-6
C=CCNC(=O)C1CCN(S(=O)(=O)c2ccc3ccccc3c2)CC1	4	-4	11	0	-1	-5	i	5
O=C(CSc1ccc(Cl)cc1)Nc1ccc(NC(=O)c2ccco2)cc1	-42	-10	-15	8	7	-8	i	0
Cc1cc(C)c2c(c1)-c1c(ssc1=S)C(C)(C)N2C(=O)CSc1nncn1C	.	-7	-9	-16	-20	-13	i	-2
CN(C)c1ccc(N2C(=O)CC(c3ccccc3)CC2=O)cc1	-14	5	10	0	-1	-16	i	-4
O=C(NC(=S)Nc1ccccc1Br)C1CCCC1	-37	-3	-2	-3	0	-19	i	8
Cc1cc(C)c(S(=O)(=O)N2CCOC2CNC(=O)C(=O)NCCN2CCOCC2)c(C)c1 (configuration not stated)	-5	-6	8	2	4	2	i	3
Fc1ccc(Cn2c(SCc3ccc(F)c(C(F)(F)F)c3)nnc2C(F)(F)F)cc1	30	-4	16	.	.	3	i	-6

Filtered by structure: those above containing an aryl thioether with sulfur outside any ring (3)
SMILES	HIV Env fusion	eIF4H FP inh	CSC inhib	MT1-MMP act inh	MT1-MMP act inh RFP	Yeast UUG start	Rce1 inh	PABP FP inh
O=C(CSc1ccc(Cl)cc1)Nc1ccc(NC(=O)c2ccco2)cc1	-42	-10	-15	8	7	-8	i	0
Cc1cc(C)c2c(c1)-c1c(ssc1=S)C(C)(C)N2C(=O)CSc1nncn1C	.	-7	-9	-16	-20	-13	i	-2
Fc1ccc(Cn2c(SCc3ccc(F)c(C(F)(F)F)c3)nnc2C(F)(F)F)cc1	30	-4	16	.	.	3	i	-6

Compounds listed so far that contain sulfur, in the order listed:
SMILES	HIV Env fusion	eIF4H FP inh	CSC inhib	MT1-MMP act inh	MT1-MMP act inh RFP	Yeast UUG start	Rce1 inh	PABP FP inh
CSCCC(NS(=O)(=O)c1ccc(C)cc1C)C(=O)Nc1cccnc1 (configuration not stated)	-48	.	-2	0	1	-21	.	.
C=CCNC(=O)C1CCN(S(=O)(=O)c2ccc3ccccc3c2)CC1	4	-4	11	0	-1	-5	i	5
O=C(CSc1ccc(Cl)cc1)Nc1ccc(NC(=O)c2ccco2)cc1	-42	-10	-15	8	7	-8	i	0
Cc1cc(C)c2c(c1)-c1c(ssc1=S)C(C)(C)N2C(=O)CSc1nncn1C	.	-7	-9	-16	-20	-13	i	-2
O=C(NC(=S)Nc1ccccc1Br)C1CCCC1	-37	-3	-2	-3	0	-19	i	8
Cc1cc(C)c(S(=O)(=O)N2CCOC2CNC(=O)C(=O)NCCN2CCOCC2)c(C)c1 (configuration not stated)	-5	-6	8	2	4	2	i	3
Fc1ccc(Cn2c(SCc3ccc(F)c(C(F)(F)F)c3)nnc2C(F)(F)F)cc1	30	-4	16	.	.	3	i	-6

Single values from the results shown.
Result of `Cc1cc(C)c2c(c1)-c1c(ssc1=S)C(C)(C)N2C(=O)CSc1nncn1C` under MT1-MMP act inh: -16
Result of `COc1cccc(C2c3c(-c4ccccc4O)n[nH]c3C(=O)N2Cc2ccco2)c1` (configuration not stated) under Yeast UUG start: 1

The listing continues.
SMILES	HIV Env fusion	eIF4H FP inh	CSC inhib	MT1-MMP act inh	MT1-MMP act inh RFP	Yeast UUG start	Rce1 inh	PABP FP inh
O=C(NC(=S)NCC1CCCO1)c1ccc(Br)o1 (configuration not stated)	4	-7	-9	3	3	.	i	-6
CC(C)c1ccccc1N1CC(C(=O)O)CC1=O (configuration not stated)	-23	1	-15	1	1	-13	.	-10
O=C(NCCN1CCN(c2ccccc2F)CC1)c1cccn2c(=O)c3ccccc3nc12	-76	-3	4	6	-2	-5	i	-1
NC(=O)c1ccc(NC(=O)COC(=O)c2c3c(nc4ccccc24)/C(=C\c2ccc4c(c2)OCO4)CCC3)cc1	32	?	.	-157	-10	.	i	-18
Cc1ccc(OCC(=O)NC(C)c2ccccc2)cc1 (configuration not stated)	-4	10	-12	5	0	-11	i	7
COC(=O)Cc1c(C)c2ccc(OCC(=O)N3CCOCC3)cc2oc1=O	.	-8	-15	1	0	-11	?	-8
COc1ccc(C(=O)Nn2c(C)nc3ccccc3c2=O)c(OC)c1	-3	2	1	0	0	.	i	3
COc1ccc(OC)c(S(=O)(=O)Nc2ccc(C(C)=O)cc2)c1	-102	-10	.	-3	-3	-2	i	5
Cc1ccc(NC(=O)C(=O)NCCN2CCN(Cc3ccc([N+](=O)[O-])cc3)CC2)cc1	-12	-3	-4	1	-12	.	i	-2
COc1ccc(CCNC(=O)COC(=O)C2CC2C)cc1 (configuration not stated)	5	.	.	-2	1	1	.	.

A second format for some results above:
Compound | HIV Env fusion | eIF4H FP inh | CSC inhib | MT1-MMP act inh | MT1-MMP act inh RFP | Yeast UUG start | Rce1 inh | PABP FP inh
CC(C)c1ccccc1N1CC(C(=O)O)CC1=O (configuration not stated) | -23 | 1 | -15 | 1 | 1 | -13 | . | -10
O=C(NCCN1CCN(c2ccccc2F)CC1)c1cccn2c(=O)c3ccccc3nc12 | -76 | -3 | 4 | 6 | -2 | -5 | i | -1

Other records
SMILES	HIV Env fusion	eIF4H FP inh	CSC inhib	MT1-MMP act inh	MT1-MMP act inh RFP	Yeast UUG start	Rce1 inh	PABP FP inh
COc1ccc(CNC(=O)c2cc(-c3ccco3)on2)cc1	-38	-8	0	2	1	-6	i	-5
COc1ccc(OCC(=O)OCC(=O)NCc2ccco2)cc1	.	4	0	3	0	-8	i	-1
C/C(CC(=O)Nc1cccc(C(F)(F)F)c1)=N\NC(=O)C(=O)NCC(C)C	-2	-17	-10	-1	2	-14	i	-6
Cc1ccc(-c2c[n+](Cc3cccc(Cl)c3)c3n2CCC3)cc1	16	-13	.	-7	-33	.	i	-4
COCc1c(C(=O)N2CCN(Cc3c(F)cccc3Cl)CC2)oc2ccccc12	11	-10	2	-1	-3	-4	i	-7
Cc1ccn(CCNC(=O)C2CCC(=O)N(Cc3ccc(Cl)cc3)C2)n1 (configuration not stated)	9	15	-4	-1	2	-19	i	10
Cc1ccc(S(=O)(=O)N2CCOCC2)cc1C(=O)Nc1ccc2c(c1)CCC2	.	6	-10	2	1	.	i	-6
Cc1cc(N2CCN(c3nc(-c4ccc([N+](=O)[O-])cc4)cs3)CC2)c2ccccc2n1	13	0	30	.	.	.	i	8
CC(OC(=O)C1=COCCO1)C(=O)Nc1ccccc1C#N (configuration not stated)	-4	3	-6	-1	5	.	i	46
CCOc1ccc2[nH]cc(-c3csc(N)n3)c2c1	27	-6	-5	14	21	0	i	5
O=[N+]([O-])c1cccc(SSc2cccc([N+](=O)[O-])c2)c1	-2	.	.	-5	-12	-24	.	.
Cc1ccnc2nc(C(=O)N3CCN(S(=O)(=O)c4ccccc4)CC3)nn12	-73	8	-4	3	-1	-6	i	-3
C=CCNC(=O)c1ccccc1NC(=O)c1ccc(Cl)c(S(=O)(=O)Nc2ccccc2)c1	35	-16	18	4	-9	6	i	-11
Cc1cccc(CSc2cn(CC(=O)N3CCOCC3)c3ccccc23)c1	.	-3	.	0	-1	-7	i	3
O=C(C1CCC1)N1CCc2cc(S(=O)(=O)Nc3ccc4c(c3)OCO4)ccc21	.	-12	.	7	-16	2	i	-9
O=C(N/N=C/c1c[nH]c2ccccc12)C1CC1c1ccccc1 (configuration not stated)	.	-6	.	-13	-20	.	i	5
O=C(CCCC(=O)OCC1CCCO1)OCC1CCCO1 (configuration not stated)	.	-5	16	-2	5	-3	i	-3
Cc1c(C(=O)OCC(=O)NCc2ccccc2)oc2ccccc12	-22	.	-8	8	-4	-16	i	.
CC1CCC2C(=O)N(c3ccc(Cc4ccncc4)cc3)C(=O)C2C1 (configuration not stated)	43	-13	-3	-3	-24	.	i	3
COc1ccccc1CNC(=O)C(NC(=O)c1ccccc1)C(C)C (configuration not stated)	7	-12	-2	-8	-7	.	i	2
CC1CCCCN1CCNC(=O)c1ccc2c(c1)N(Cc1ccccc1F)C(=O)c1ccccc1S2=O (configuration not stated)	-77	5	24	-1	1	.	i	2
CC(=O)Nc1ccc(NC(=O)C(C)OC(=O)CCN=C2NS(=O)(=O)c3ccccc32)cc1 (configuration not stated)	-9	-7	-5	-1	3	-7	i	0
CC(=O)Nc1cc(-c2nn(CC(=O)N3CCCCC3)c(=O)c3ccccc23)ccc1N1CCOCC1	11	-4	-1	-4	-3	-3	i	3
C(=N\Nc1nc(Nc2ccccc2)nc(Nc2ccccc2)n1)/c1ccncc1	19	-16	15	1	0	-16	i	3
COCCCNC(=S)N1CCC(NC(=O)Nc2ccc(C)cc2)CC1	17	-3	-2	2	-1	.	i	4
CCS(=O)(=O)c1ccc2oc(SCC(=O)Nc3ccc(OC)cc3OC)nc2c1	9	10	-2	1	3	.	i	2
O=C(Cc1ccccc1)NCC(=O)N/N=C/c1ccc([N+](=O)[O-])s1	-8	26	.	-3	-5	-7	i	15
Cc1cc(C(=O)NCc2ccc(F)cc2)c2ccccc2n1	-13	-5	-22	-2	-1	-11	i	4
COc1cccc(C(=O)CN(C(=O)c2ccc(Cl)c(Cl)c2)N2C(=O)c3ccccc3C2=O)c1	.	-1	5	4	2	-15	i	-2
CC(C)C(c1nnnn1Cc1ccccc1)N1CCc2ccccc2C1 (configuration not stated)	.	-12	-7	-4	-2	1	i	-1
C/C(=N\NC(=O)NC1CCCCC1)c1ccco1	9	-4	3	-1	-1	.	i	-20
O=C(Nc1ccccc1C(=O)NCCCn1ccnc1)c1ccc(Cl)cc1Cl	.	-5	-12	8	3	-16	i	4
Cc1ccc2cc(N)ccc2n1	-3	-4	.	5	5	.	.	6
COc1ccc(-c2sc3cc(OC)c(OC)cc3c2C#CC2(O)CCCCC2)cc1	22	.	125*	7	1	13	.	.
CCOc1ccc(NC(=O)C2CCCN(C(=O)NCc3ccccc3)C2)cc1 (configuration not stated)	-6	-6	11	3	2	-24	i	1
O=C(COc1ccc2c3c(c(=O)oc2c1)CCC3)NCCN1CCOCC1	-3	-3	5	7	9	-14	i	4
Cc1ccc([C@H]2C(C#N)=C(N)Oc3cc(C)oc(=O)c32)o1	-13	35	.	-25	-3	.	i	7
CCOC(=O)C1(C)CCN1C(=O)c1ccc(F)c(Cl)c1 (configuration not stated)	-13	.	.	-5	3	-16	.	.
CCC(C)NC(=O)c1ccc2c(c1)N(Cc1ccccc1)C(=O)CS2 (configuration not stated)	9	-22	-17	3	0	-14	i	-3
O=C(CCNC(=O)Cn1ccc2ccccc2c1=O)NCCCN1CCN(c2ccccc2F)CC1	.	-6	11	-3	0	-7	i	3

Assay outcomes (PubChem BioAssay)

Random draw from the library; about 3% have a hit in one of these screens.
